Rango-impB inh – Rango-importin beta binding inhibition; Q14974; Rango CFP/YFP FRET sensor + importin beta, 45 min; Potency, µM (top dose mostly 92.2 µM), for inactives: at the top dose inhibition of complex formation; hit rate 0.031% among 340,000; AID 540263; active = rising FRET ratio curve, often small or poorly fitted; inconclusive = mostly compound fluorescence or quenching in the first reads; inactive = flat curves in all reads;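 also: potency is read from the fitted curve at half-maximal effect; 0% = DMSO wells and 100% = buffer wells lacking importin beta; nearly all actives have a fitted effect of over 15% in size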
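Inhibition scored from the CFP 486 nm/YFP 530 nm FRET ratio 45 min after adding 0.125 microM importin beta to 50 nM Rango biosensor preincubated 5 min with compound (room temperature, PBS with DTT, Tween-20, BSA). No-importin wells as positive control.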
GLA inh pH 4.5 – alpha-galactosidase A (human) inhibition, pH 4.5. purified enzyme, 4-MU-alpha-Gal fluorescence, pH 4.5. activity change, negative = inhibition, % at 105 µM. 230,000 tested, under 10 active. P06280. AID 1467; inconclusive = small, poorly fitted or top-dose-only inhibition, or a rising curve; inactive = flat fitted curve, though single readings scatter; no compound was filed as active;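 also: 0% = full activity with enzyme and -100% = basal without enzyme; dose as in the result columns while the protocol names 77 µM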
Target sequence (P06280 whole entry, looked up): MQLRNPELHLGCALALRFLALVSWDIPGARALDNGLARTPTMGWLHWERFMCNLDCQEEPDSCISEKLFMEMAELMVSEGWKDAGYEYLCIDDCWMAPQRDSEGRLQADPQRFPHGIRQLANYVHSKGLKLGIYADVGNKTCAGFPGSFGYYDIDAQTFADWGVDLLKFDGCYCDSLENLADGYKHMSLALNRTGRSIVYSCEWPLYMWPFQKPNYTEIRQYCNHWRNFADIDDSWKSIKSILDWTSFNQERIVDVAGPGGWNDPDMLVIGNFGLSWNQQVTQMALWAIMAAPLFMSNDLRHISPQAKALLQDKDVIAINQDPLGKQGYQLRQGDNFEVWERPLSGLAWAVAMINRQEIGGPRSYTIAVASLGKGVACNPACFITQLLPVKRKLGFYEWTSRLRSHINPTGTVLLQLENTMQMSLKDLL
Rango dissoc inh – inhibition of RanGTP-driven Rango-importin beta dissociation. O95149+P62826. Potency, µM (top dose mostly 46.1 µM), without a hit: at the top dose activity change, negative = inhibition. hit rate 0.071% among 340,000. Biochemical FRET Rango-importin beta, RanGTP-induced dissociation; active means falling FRET ratio curve, often poorly fitted, with flat reads before Ran was added; inconclusive means other falling curves, or compound fluorescence or quenching; inactive means flat or rising ratio curve;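 also: potency is read from the fitted curve at half-maximal effect; % of control where 0% means no effect; nearly all actives have a fitted effect of over 45% in size; -100% = wells without RanGTP and RCC1; the record marks most hits as doubtful in a second field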
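Rango (0.1 uM)–importin beta (0.25 uM) complex; RanGTP-RCC1 trigger; 45 min RT; CFP/YFP FRET read.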
miR-21 reporter – miR-21 reporter, rising signal; HeLa miR-21 FLuc reporter, luciferase, 48 h; Potency, µM (series often up to 38.3 µM), without a hit: top-dose reporter change, positive = more light; 340,000 tested, under 10 active; AID 2288; active = well fitted rising curve with a large enough effect; inconclusive = small, poorly fitted or top-dose-only effect; inactive = no such curve, though single readings can be large or run the other way;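 also: % of control where 0% means no effect; miR-21 action dims this reporter so a rising signal means less miR-21 action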
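HeLa miR-21-FLuc reporter line, endogenous miR-21; 2000 cells/well in DMEM/10% FBS; compound titration up to ~40uM final, 48 h, 37 degree Celsius; luciferase detection reagent, 15 min lysis, CCD luminescence.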
An asterisk follows results filed as active; u = inconclusive; x = not tested or not shown; & = joins results of further samples; [ ] = dose if it differs, or a comment. These rows are one share of the data. The share of hits here may be higher or lower than overall.

Short forms – A = Rango-impB inh; B = GLA inh pH 4.5; C = Rango dissoc inh; D = miR-21 reporter
COc1ccc2nc(NC(=O)CCN3C(=S)NC(C)(C)CC3C)sc2c1 (configuration not stated)
  A: -0.9%; B: -6; C: -16%; D: -12%
CSc1ccc(CN2CCN(CCC(C)C)C(CCO)C2)cc1 (configuration not stated)
  A: 0.5%; B: -5; C: -18%; D: -2%
Cc1cc(C)c(CN2CCC(n3nccc3NC(=O)C3CCOC3)CC2)cc1C (configuration not stated)
  A: -4.0%; B: x; C: 2%; D: -2%
CCn1c2ccccc2c2cc(NC(=O)c3cccc([N+](=O)[O-])c3)ccc21
  A: -0.1%; B: -7; C: -5%; D: -4%
Cn1c(=O)c(=O)n(C)c2cc(S(=O)(=O)N3CCCC3C(=O)Nc3ccccc3F)ccc21 (configuration not stated)
  A: 0.1%; B: x; C: u; D: -5%&3%
COc1ccc(C(=O)Nc2ccc(-c3ccc(NC(=O)c4ccc(OC)cc4)c(OC)c3)cc2OC)cc1
  A: 0.6%; B: -15; C: 2%; D: -7%
Cc1ccnc(NC(=O)Nc2ccc(F)cc2)c1
  A: -2.2%; B: -6; C: -7%; D: -39%
CCOc1ccccc1C1C(C(N)=O)=C(C)Nc2nc(-c3ccccc3Cl)nn21 (configuration not stated)
  A: -0.6%; B: -5; C: 13%; D: -8%
O=C(Cn1nnc(-c2ccc(CN3CCOCC3)cc2)n1)N(c1ccccc1)c1ccccc1
  A: 4.0%; B: -2; C: 36%; D: -1%
COc1ccc([N+](=O)[O-])cc1NC(=O)Cc1noc2ccccc12
  A: 3.5%; B: -5[21.1 µM]; C: -11%; D: 0%

Reprinted at random: two compounds from above, in no set order.
Short forms – A = Rango-impB inh; B = GLA inh pH 4.5; C = Rango dissoc inh; D = miR-21 reporter
COc1ccc(C(=O)Nc2ccc(-c3ccc(NC(=O)c4ccc(OC)cc4)c(OC)c3)cc2OC)cc1
  A: 0.6%; B: -15; C: 2%; D: -7%
Cn1c(=O)c(=O)n(C)c2cc(S(=O)(=O)N3CCCC3C(=O)Nc3ccccc3F)ccc21 (configuration not stated)
  A: 0.1%; B: x; C: u; D: -5%&3%

Next entries
Short forms – A = Rango-impB inh; B = GLA inh pH 4.5; C = Rango dissoc inh; D = miR-21 reporter
CN=C1CC(C)(C)CC(=O)/C1=C(/O)CCC(=O)NC
  A: 0.9%; B: 1; C: -6%; D: -11%
CCN1C(=O)C2C(C1=O)N1C(c3ccccc3)C3C(=O)N(CC)C(=O)C3N1C2c1ccccc1 (configuration not stated)
  A: -0.1%; B: -2; C: -14%; D: -4%
O=C(Nc1ccc(N2CCN(Cc3ccccc3)CC2)cc1)c1cccnc1
  A: 2.5%; B: -4; C: 5%; D: 0%
CN(C(=O)c1ccc(NC(=O)Cc2ccc(NC(=O)C3CCCN(C(=O)C4CCCC4)C3)cc2)cc1)C1CC1 (configuration not stated)
  A: -4.8%; B: x; C: -3%; D: x
O=C1NCCCCC1NC1CC(=O)N(c2ccccc2)C1=O (configuration not stated)
  A: -1.6%; B: -7; C: 1%; D: -4%
CC1=NN(c2ccccc2)C(=O)/C1=C/C=C/c1ccccc1
  A: -0.8%; B: 0; C: -21%; D: -3%
COc1ccc(C2=C(C)C(N3CCN(C(=O)c4ccco4)CC3)=NS2(=O)=O)cc1
  A: 0.2%; B: x; C: 0%; D: -1%
O=C(NCC1CCC(C(=O)O)CC1)c1cccnc1 (configuration not stated)
  A: 2.8%; B: 2; C: 22%; D: -7%
CCN1C(=O)[C@H]2[C@H]3CN=C(SCc4ccc(C)cc4)N3[C@@](Cc3ccccc3)(C(=O)OC)[C@H]2C1=O
  A: -3.4%; B: x; C: 2%; D: x
Cc1ccc(-c2nnc(NC(=O)c3c(F)cccc3Cl)s2)cc1
  A: 4.4%; B: x; C: -12%; D: -11%

Some of these compounds in order of heavy-atom count, smallest number first:
Short forms – A = Rango-impB inh; B = GLA inh pH 4.5; C = Rango dissoc inh; D = miR-21 reporter
O=C(NCC1CCC(C(=O)O)CC1)c1cccnc1 (configuration not stated)
  A: 2.8%; B: 2; C: 22%; D: -7%
O=C1NCCCCC1NC1CC(=O)N(c2ccccc2)C1=O (configuration not stated)
  A: -1.6%; B: -7; C: 1%; D: -4%
Cc1ccc(-c2nnc(NC(=O)c3c(F)cccc3Cl)s2)cc1
  A: 4.4%; B: x; C: -12%; D: -11%
COc1ccc(C2=C(C)C(N3CCN(C(=O)c4ccco4)CC3)=NS2(=O)=O)cc1
  A: 0.2%; B: x; C: 0%; D: -1%
CCN1C(=O)C2C(C1=O)N1C(c3ccccc3)C3C(=O)N(CC)C(=O)C3N1C2c1ccccc1 (configuration not stated)
  A: -0.1%; B: -2; C: -14%; D: -4%
CCN1C(=O)[C@H]2[C@H]3CN=C(SCc4ccc(C)cc4)N3[C@@](Cc3ccccc3)(C(=O)OC)[C@H]2C1=O
  A: -3.4%; B: x; C: 2%; D: x
CN(C(=O)c1ccc(NC(=O)Cc2ccc(NC(=O)C3CCCN(C(=O)C4CCCC4)C3)cc2)cc1)C1CC1 (configuration not stated)
  A: -4.8%; B: x; C: -3%; D: x

The list goes on.
Short forms – A = Rango-impB inh; B = GLA inh pH 4.5; C = Rango dissoc inh; D = miR-21 reporter
O=C(O)CNC(=O)c1ccc(NC(=O)/C(=C/c2ccccc2)NC(=O)c2ccccc2)cc1
  A: 9.1%; B: x; C: 28%; D: -5%
COC(=O)[C@]1(C)N[C@H](CN(C)C(=O)C2CCCCC2)[C@@H]2C(=O)N(C)C(=O)[C@@H]21
  A: -1.8%; B: x; C: 10%; D: x
CCOC(=O)/C=c1\s/c(=C(\C#N)C(=O)OCC)n(-c2ccccc2)c1=O
  A: -0.4%; B: x; C: u; D: -1%
CCc1ccc2oc(-c3cccc(N)c3)nc2c1
  A: 0.3%; B: -1; C: 29%; D: -18%
CCOC(=O)c1c(C)[nH]c(C(=O)N(C)CC(=O)Nc2ccc(OC)cc2)c1C
  A: -0.3%; B: x; C: 8%; D: x
COc1cc(/C=N/NC(=O)c2cccnc2)ccc1OC(=O)c1ccc2c(c1)OCO2
  A: 0.3%; B: -2; C: 12%; D: -11%
CCOC(=O)c1cccc(S(=O)(=O)N(CCO)Cc2cc3cc(OC)c(OC)cc3[nH]c2=O)c1
  A: 3.9%; B: 0; C: -10%; D: -13%
O=C(NNC(=O)c1ccccc1Br)c1cccc(Cl)c1
  A: 11%; B: 3; C: 3%; D: -37%
O=C1C2C(c3ccccc3)CC=CC2[C@H](c2ccoc2)N1Cc1ccccc1 (some centres not stated)
  A: -5.9%; B: -10; C: 2%; D: 27%
COc1ccc(-c2n[nH]c(=S)n2-c2ccc(C)cc2C)cc1
  A: -1.2%; B: x; C: -9%; D: -14%
CCOc1cc(N2CCOCC2)c(OCC)cc1NC(=O)[C@H](C)N1C(=O)C2CC=CCC2C1=O (some centres not stated)
  A: -1.2%; B: 2; C: 1%; D: 2%
Nc1ccc(CCc2ccccn2)cc1
  A: -1.1%; B: x; C: -1%; D: x
CCOC(=O)c1cnc2c(Cl)cccc2c1NCCN1CCOCC1
  A: -4.2%; B: -3; C: -4%; D: -7%&-10%
COc1ccc(C2N(c3cc(Cl)ccc3OC)C(=O)C3CCCN32)cc1 (configuration not stated)
  A: 6.7%; B: 22; C: -17%; D: -11%
NC(=S)n1[nH]c(-c2ccc([N+](=O)[O-])cc2)c(N=Nc2ccccc2[N+](=O)[O-])c1=O
  A: 1.3%; B: 3; C: -9%; D: 2%
O=C(CN1C(=O)NC(Cc2c[nH]c3ccccc23)C1=O)Nc1ccccc1C(F)(F)F (configuration not stated)
  A: 0.1%; B: x; C: 9%; D: x
Cc1ccc(NC(=O)CSc2ccccc2)cc1S(=O)(=O)N1CCCCC1
  A: 3.0%; B: x; C: -5%; D: x
COc1ccc(-c2c3c(=O)n(C)c(=O)n(C)c3cn2N2CCOCC2)cc1
  A: -3.2%; B: 0; C: 12%; D: -30%
CN(C(=O)CSc1nnc(-c2ccc(C(C)(C)C)cc2)n1C)C1CCS(=O)(=O)C1 (configuration not stated)
  A: -1.0%; B: x; C: -22%; D: x
O=S(=O)(Nc1cc(S(=O)(=O)N2CCOCC2)ccc1NCC1CCCO1)c1ccccc1F (configuration not stated)
  A: 2.2%; B: x; C: 10%; D: x
COCc1cc(=O)n2[nH]cc(-c3ccsc3)c2n1
  A: -0.6%; B: x; C: 1%; D: 0%
CCc1nc(NCCCCCO)c2nnn(Cc3ccccc3F)c2n1
  A: -1.1%; B: -4; C: 1%; D: -19%
CC1(C)CC(=O)C2=C(C1)OC(N)=C([N+](=O)[O-])C2c1cccs1 (configuration not stated)
  A: -0.5%; B: -12; C: 13%; D: 0%
Cc1nc2cc(O)ccc2n1C
  A: 0.7%; B: 8; C: 21%; D: 0%
Cc1ccc(CCNc2ccccc2)c[n+]1[O-]
  A: -2.4%; B: 5; C: -1%; D: -20%
COc1ccccc1C(=O)N=C1SC2CS(=O)(=O)CC2N1c1ccccc1 (configuration not stated)
  A: 0.6%; B: x; C: 11%; D: 1%
CCOc1ccc(N/C=C/C(=O)c2ccccc2)cc1
  A: u; B: x; C: u; D: -40%
COc1cc(CN(C)C(=O)C(=O)c2c[nH]c3ccccc23)ccc1O
  A: 1.8%; B: x; C: -2%; D: x
COc1ccc(NC(=O)CSc2nc(C)cs2)cc1
  A: 2.9%; B: -23; C: -24%; D: -37%
CC(C)(C)NC(=O)NC(=O)COC(=O)c1ccc2c(c1)S(=O)(=O)N=C1CCCCCN12
  A: -2.2%; B: -3; C: 15%; D: -5%
c1coc(CNc2ncnc3sc4c(c23)CCCCC4)c1
  A: 1.1%; B: -5; C: -3%; D: -28%
CC1CC1C(=O)OCC(=O)Nc1cc(S(=O)(=O)N2CCCCC2)ccc1Cl (configuration not stated)
  A: -1.4%; B: x; C: 1%; D: x
CC(CCc1ccco1)NC(=O)Cn1nc(Cc2ccncc2)c2ccccc2c1=O (configuration not stated)
  A: -4.4%; B: 2; C: 17%; D: -1%
Cc1c(OCC(=O)N2CCN(c3ccccc3)CC2)ccc2c3c(c(=O)oc12)CCCC3
  A: 1.8%; B: x; C: u; D: 0%
COc1cc(OC)cc(C(=O)NNC(=O)C(CCC(N)=O)NS(=O)(=O)c2ccc(Cl)cc2)c1 (configuration not stated)
  A: 3.6%; B: x; C: -5%; D: x
COc1ccc(OCCCCc2c(C)n[nH]c2C)cc1
  A: 3.4%; B: x; C: u; D: x
Cc1nnc(NC(=O)C2CC(=O)N(Cc3ccccc3)C2)s1 (configuration not stated)
  A: 1.1%; B: x; C: -5%; D: -1%
O=[N+]([O-])c1cc(C(F)(F)F)cc([N+](=O)[O-])c1NCCNC(=S)Nc1cccc(F)c1
  A: 0.2%; B: -13; C: -22%; D: u
O=C(COC(=O)c1ccc2c(c1)OCO2)Nc1cccc(F)c1
  A: 1.4%; B: x; C: -18%; D: x
CC(C)N(c1ccccc1)c1ccc(NC(=O)COC(=O)CCN2C(=O)c3cccc([N+](=O)[O-])c3C2=O)cc1
  A: u; B: 5; C: -14%; D: -4%
Cc1cc(C)n(Cc2ccc(C(=O)Nc3ccc(Br)cc3C)o2)n1
  A: 0.7%; B: -1; C: -2%; D: -7%
Cc1ccc(CCN2CC(C(=O)NC3CCCC3)CC2=O)cc1 (configuration not stated)
  A: -2.7%; B: 2; C: -16%; D: 0%
CCC(=O)c1c(OCc2ccccc2)ccc2c(C)cc(=O)oc12
  A: x; B: -15; C: x; D: -14%
O=C(Cc1ccc(F)cc1)Nc1nc(-c2ccc(F)c(F)c2)cs1
  A: 3.0%; B: x; C: -5%; D: 21%
O=C(O)c1ccccc1OCCN1CCCC1=O
  A: -1.1%; B: x; C: 1%; D: -1%
CCOC(=O)CC1=NN(c2ccccc2)C(=O)C1
  A: 0.3%; B: 8; C: 0%; D: 1%
CC1=C(C#N)C(c2ccc(O)cc2)C(C#N)=C(C)N1
  A: 0.4%; B: 0; C: -1%; D: 0%
O=c1cc(O)sc2ccccc12
  A: -2.1%; B: -8; C: 5%; D: -5%
COc1ccccc1C1=NOC(C)(c2nnc(Cc3ccccc3)o2)C1 (configuration not stated)
  A: -0.3%; B: x; C: 11%; D: x
COC(=O)CCCC(=O)NC1CC(C)(C)Cc2c1cnn2-c1ccc(C)cc1 (configuration not stated)
  A: 2.6%; B: x; C: 11%; D: -10%

Screening data from PubChem BioAssay.
